Screening results deposited in PubChem BioAssay by ICCB-Longwood Screening Facility, Harvard Medical School.
HCMV NEC inh: disrupts HCMV UL50-UL53 complex binding | HTRF UL50-UL53 interaction, normalized percent inhibition | inhibition, % (concentration not given with the values) | 190,000 tested, 0.15% active | AID 1918969;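 active means both replicates at 50% or more, plus weaker picks with an unusually low signal ratio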;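 further: stock transfer was 100 nL into about 20 µL; 0% = negative control wells and 100% = wells with untagged competitor protein; inactives centre near -12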
GIV-Gai inh: inhibitors of GIV GBA-motif binding to rat Galpha-i3. 210,000 tested, 0.42% active. Galpha-i3/FITC-GIV peptide fluorescence polarization, 90 min; active compounds read low; scaled: aluminum fluoride 0%, vehicle 100%. P08753. percent of control (FP), % (test concentration not listed);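 active means replicate mean at 85% of control or lower, very high polarization wells dropped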;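 further: lower values mean more displacement of the GIV peptide from Galpha-i3; wells of about 15 µL received 100 nL stock; the first replicate is given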
Target sequence (P08753 whole entry, looked up): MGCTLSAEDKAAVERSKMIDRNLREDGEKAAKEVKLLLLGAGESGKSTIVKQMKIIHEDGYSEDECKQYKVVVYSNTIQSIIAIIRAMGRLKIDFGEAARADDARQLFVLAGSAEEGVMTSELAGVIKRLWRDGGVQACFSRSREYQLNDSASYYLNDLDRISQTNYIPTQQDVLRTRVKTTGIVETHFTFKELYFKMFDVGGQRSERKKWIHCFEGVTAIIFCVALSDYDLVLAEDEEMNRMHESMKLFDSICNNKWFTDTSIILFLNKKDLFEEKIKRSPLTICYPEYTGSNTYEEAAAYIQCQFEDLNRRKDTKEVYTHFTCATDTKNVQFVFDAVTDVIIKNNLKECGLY
Sa growth inh: S. aureus growth inhibition. S. aureus RN4220 growth, OD600, 20 h, 42 °C; active compounds read low. relative growth, % (concentration not given with the values). 170,000 tested, 0.53% active;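 active means growth at 42 °C up to 50% and 20 or more points under that at 30 °C, or under 10% at both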;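 further: 300 nL library stock went into each well; scaled to the means of positive and negative controls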
Sa growth inh second temp: further read-out of Sa growth inh, marked with its call; relative growth, %; measured here: growth at 30 °C;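 optical density after 20 h as mean of two plates; 100% = untreated growth and lower means inhibition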
An asterisk follows results filed as active; · = not tested or not shown.

SMILES | HCMV NEC inh | GIV-Gai inh | Sa growth inh | Sa growth inh second temp
CC(C)(CN)C(O)C(=O)O (stereo not drawn) | -13.7 | 97.4 | 103.5 | 93.0
COc1ccc(NC(=O)CC2C(=O)N(c3cccc(OC)c3)C(=O)N2Cc2ccc3c(c2)OCO3)cc1 (stereo not drawn) | -43.6 | 100.2 | 95.3 | 89.4
Cc1[nH]nc2c1C(c1ccc(C(C)C)cc1)N(C)C2=O (stereo not drawn) | · | 97.8 | 85.8 | 82.3
Cc1ccc(S(=O)(=O)Nc2cc3[nH]c(=O)[nH]c3cc2Cl)c(C)c1 | -36.4 | 105.6 | · | ·
O=C(Cn1cccc1)Nc1ccccc1Cl | · | 97.3 | 100.3 | 90.8
CC1(C)C/C(=N\O)c2c(nc(C(F)(F)F)c3[nH]c4ccccc4c23)C1 | · | 102.0 | 143.2 | 59.3
CCOC(=O)N1CCN(C(=S)NC2CCCC2)CC1 | 4.6 | 102.4 | 108.1 | 96.5
N#C/C(=C\Nc1cc(C(F)(F)F)cc(C(F)(F)F)c1)S(=O)(=O)c1cccs1 | -6.6 | 100.6 | 85.4 | 90.2
CC(NC(=O)CSc1nnc(-c2ccco2)n1-c1ccccc1)C1CC2CCC1C2 (stereo not drawn) | -15.0 | · | 102.2 | 79.5
N#CC(C#N)=C1CCC(=C(C#N)C#N)CC1 | -19.6 | 194.9 | 90.5 | 77.3
CCCn1cc(S(=O)(=O)c2ccccc2)c(=O)c2cc(F)c(N3CCCCCC3)cc21 | · | 109.5 | 99.1 | 79.5
CC(C)N1CCC(=O)N(c2ccc(C(C)(C)C)cc2)C1=O | -16.5 | 99.5 | 97.3 | 94.3
COC(=O)C1CCN(C(=O)Cc2csc(NC(=O)Nc3ccccc3)n2)CC1 | 3.0 | 104.5 | · | ·
O=C(COC(=O)CCc1c[nH]c(=O)[nH]1)Nc1ncccn1 | -22.4 | 100.7 | 103.6 | 78.9
CC(=O)N1CCSc2ccc(S(=O)(=O)Nc3cc(F)ccc3F)cc21 | -10.3 | 104.2 | · | ·
O=C(NCCCN1CCCCC1)c1cc(Sc2ccc(F)cc2)nc2ccccc12 | · | 97.7 | 114.1 | 78.0
COC(=O)C(C)C1Sc2ccccc2NC1=O (stereo not drawn) | · | 100.0 | 102.5 | 90.7
O=C(O)/C=C\C(=O)NCC1(c2ccccc2)CCOCC1 | 3.7 | 99.1 | 96.0 | 94.2
Cc1cc(=O)oc2c1ccc1oc(N=Nc3ccccc3)c(O)c12 | -32.5 | 102.9 | 87.3 | 85.9
Cc1ccc(CCNC(=O)c2sc3ncccc3c2-n2cccc2)cc1 | · | 99.4 | 87.8 | 91.3
COCCN1C(=O)c2ccccc2C(C(=O)NCc2ccccn2)C1c1ccc(F)cc1 (stereo not drawn) | -4.6 | 103.4 | 98.1 | 84.2
Cc1ccc(C)c(N2CCN(S(=O)(=O)c3ccc4c(c3)OCCO4)CC2)c1 | -4.7 | 103.7 | 106.2 | 100.0
Cc1nc2ccccc2nc1C(N)=O | -6.6 | 96.4 | 90.1 | 86.9
O=C(NCc1ccc(F)cc1)C(=O)NCC(c1cccs1)S(=O)(=O)c1cccs1 (stereo not drawn) | · | 100.6 | 128.7 | 90.6
CCC(CC)C(=O)NCC(c1ccc(Br)cc1)c1c[nH]c2ccccc12 (stereo not drawn) | -18.6 | 106.7 | · | ·
CC(CNC(=O)c1ccc(CSc2nc3ccncc3n2Cc2ccc(F)cc2)cc1)c1ccccc1 (stereo not drawn) | -5.3 | 97.1 | 102.6 | 90.3
Cc1ccc(Cn2c(C(=O)O)c(CNC3CCCC3)c3ccc(C)cc32)cc1 | · | 103.2 | 123.4 | 91.1
COc1ccc(-c2cc(C(=O)Nc3c(C)nn(Cc4ccc(C)cc4)c3C)no2)cc1OC | -10.5 | 101.8 | 95.0 | 85.7
Cc1ccc(N2C(=O)N(CC(=O)N3CCC(C)CC3)C3CS(=O)(=O)CC32)cc1Cl (stereo not drawn) | -8.6 | 106.9 | 98.6 | 88.9
CCOc1ccc(OCC)c(C(=O)C2CCCCC2)c1 | -5.4 | · | 101.8 | 96.0
O=C(O)c1ccccc1C(=O)NC1=NN(c2ccccc2)CC1 | -31.8 | 101.5 | 79.9 | 99.2
Cc1[nH]c(C)c(S(=O)(=O)N2CCC(C(=O)NC3CCCc4ccccc43)CC2)c1C(=O)N1CCCC1 (stereo not drawn) | 9.5 | 107.2 | · | ·
CCOC(=O)C1CCN(c2ncnc3scc(C)c23)CC1 | -22.8 | 99.5 | 91.8 | 87.4
CC1CNc2ccccc2N(Cc2ccc(Br)cc2)C1=O (stereo not drawn) | -6.0 | 102.4 | · | ·
COc1ccc(CC(=O)N(Cc2nc3nc(C)cc(C)n3n2)c2ccc(C)cc2)cc1OC | 6.9 | 105.2 | · | ·
Cc1ccccc1CN1CCN(CC(=O)NCc2ccccc2Cl)C1=O | · | 101.2 | 114.7 | 83.1
O=C(NCCN1CCOCC1)c1cc2n(n1)CCCN(Cc1cccc(F)c1)C2=O | 4.8 | 100.2 | · | ·
CCOC(=O)c1[nH]c(C)c(CCC(=O)Nc2cc(C)ccc2OC)c1C | · | 102.9 | 108.4 | 95.1
Cc1nn(-c2ccccc2)nc1C(=O)ONC(=O)Cc1ccccc1 | -8.6 | 102.7 | 99.0 | 90.7
Cc1cccc(N(C)C(=O)C2CCN(S(=O)(=O)c3cccc4nonc34)CC2)c1 | · | 103.8 | 100.0 | 85.7

Of the compounds above, these contain bromine.
SMILES | HCMV NEC inh | GIV-Gai inh | Sa growth inh | Sa growth inh second temp
CCC(CC)C(=O)NCC(c1ccc(Br)cc1)c1c[nH]c2ccccc12 (stereo not drawn) | -18.6 | 106.7 | · | ·
CC1CNc2ccccc2N(Cc2ccc(Br)cc2)C1=O (stereo not drawn) | -6.0 | 102.4 | · | ·

7 records picked at random from the list so far, as already listed:
SMILES | HCMV NEC inh | GIV-Gai inh | Sa growth inh | Sa growth inh second temp
CC(CNC(=O)c1ccc(CSc2nc3ccncc3n2Cc2ccc(F)cc2)cc1)c1ccccc1 (stereo not drawn) | -5.3 | 97.1 | 102.6 | 90.3
O=C(NCCN1CCOCC1)c1cc2n(n1)CCCN(Cc1cccc(F)c1)C2=O | 4.8 | 100.2 | · | ·
CC1CNc2ccccc2N(Cc2ccc(Br)cc2)C1=O (stereo not drawn) | -6.0 | 102.4 | · | ·
Cc1ccc(N2C(=O)N(CC(=O)N3CCC(C)CC3)C3CS(=O)(=O)CC32)cc1Cl (stereo not drawn) | -8.6 | 106.9 | 98.6 | 88.9
Cc1ccc(Cn2c(C(=O)O)c(CNC3CCCC3)c3ccc(C)cc32)cc1 | · | 103.2 | 123.4 | 91.1
CCC(CC)C(=O)NCC(c1ccc(Br)cc1)c1c[nH]c2ccccc12 (stereo not drawn) | -18.6 | 106.7 | · | ·
Cc1ccc(C)c(N2CCN(S(=O)(=O)c3ccc4c(c3)OCCO4)CC2)c1 | -4.7 | 103.7 | 106.2 | 100.0

Next section
SMILES | HCMV NEC inh | GIV-Gai inh | Sa growth inh | Sa growth inh second temp
Cc1ccc(C2CCCN2C(=O)c2cc(C)no2)cc1 (stereo not drawn) | -36.1 | 108.3 | · | ·
COc1ccccc1/C=C(/C(=O)OCc1cc(C)on1)c1ccccc1 | 5.3 | · | 95.8 | 96.2
Cn1cccc1C(=O)OCc1cc(=O)oc2cc(O)ccc12 | -0.6 | · | 82.5 | 85.6
CCCCNC(=O)c1c(N)no[n+]1[O-] | -37.1 | 100.2 | 78.8 | 99.6
CC(C)CC(=O)N1CC(=O)Nc2ccc(F)cc2C1c1ccccc1 (stereo not drawn) | 8.6 | 103.3 | 100.1 | 103.6
Cc1noc(C)c1-c1nnc(-c2ccc(Cl)cc2)o1 | -3.0 | 104.3 | 109.7 | 78.2
O=c1[nH]c2ccccc2c(O)c1C1=NS(=O)(=O)c2ccccc2N1 | -23.5 | 94.4 | 88.7 | 104.1
CCc1ccccc1NC(=O)CCC(=O)N1CCSc2ccccc21 | · | 107.9 | 93.8 | 95.1
CC1(C)CC(=O)CC(=Nc2ccc3[nH]c(=O)[nH]c3c2)C1 | -13.0 | · | 101.3 | 86.8
CN(C)Cc1nc2c(c(=O)[nH]1)C(C)(C)Cc1ccccc1-2 | -3.9 | 107.5 | 115.0 | 93.2
CCCCC1CCC(C(=O)NCC2(N(C)C)CCCCC2)CC1 (stereo not drawn) | -13.3 | 107.8 | · | ·
COc1ccc(S(=O)(=O)c2nnn(-c3ccccc3F)c2C)cc1 | -20.3 | 104.2 | 105.3 | 87.3
Cc1noc(C)c1COc1ccc2ccccc2c1Br | -11.1 | · | 81.3 | 71.6
O=c1cc(CN(CCO)Cc2ccccc2)nc2nc(-c3ccccc3)[nH]n12 | -19.7 | 98.5 | · | ·
COc1ccc2oc(=O)c(C(=O)N3CCC(C(N)=O)CC3)cc2c1 | -32.0 | 99.7 | 110.9 | 92.8
CC1(C)OC(=O)N(CCCN2CCOCC2)C1(C)O (stereo not drawn) | 0.7 | 103.0 | 91.4 | 96.4
CCc1cccc(NC(=O)Cn2c(=O)n(CC3CCC(C(=O)NCCc4ccccc4)CC3)c(=O)c3ccccc32)c1 (stereo not drawn) | 11.8 | 108.2 | 90.1 | 95.1
O=C(NCc1ccccn1)c1cc(=O)nc2sc(N3CCCCC3)nn12 | -26.7 | 98.0 | · | ·
O=C(Nc1nc(SCc2ccc(Cl)cc2)n[nH]1)C1CC(=O)N(C2CCCC2)C1 (stereo not drawn) | -22.1 | · | 78.6 | 75.0
Cn1cc(C(=O)NCCc2ccccc2)c(=O)c2cc(S(=O)(=O)N3CCCCCC3)ccc21 | -14.5 | 102.4 | 102.1 | 94.8
CCN1C(=O)CC(C(=O)Nc2ccc(OC)cc2)SC1=Nc1ccccc1 (stereo not drawn) | -20.9 | 99.6 | 88.8 | 88.8
CCCNC(=O)Cn1sc2nc(C)cc(C)c2c1=O | -4.3 | 158.7 | 99.1 | 70.4
C=CCNC(=O)C1CCN(c2ncccn2)CC1 | -5.9 | 107.2 | · | ·
CC(C)(C)CC[n+]1ccc(/C=N/O)cc1 | · | 98.2 | 110.8 | 95.8
CCOC(=O)C1CCCC1=O (stereo not drawn) | -13.6 | · | 106.1 | 83.4
CN(C)c1cc[n+](CC(=O)N2CCCc3ccccc32)cc1 | -25.0 | 102.1 | 107.0 | 89.5
Cc1ccc(C(=O)OCc2c(C#N)oc3ccc(Br)cc23)cc1C | -11.7 | · | 98.9 | 92.0
O=C1CN(C(=O)CCc2ccccc2)c2ccccc2N1 | -2.7 | 107.3 | 91.2 | 95.4
Cc1ccc(Nc2cc(C(C)C)nc3nc(-c4cccnc4)nn23)c(C)c1 | -13.1 | 104.2 | · | ·
OC1CCN(Cc2cccc(Br)c2)CC1 | 4.1 | 100.1 | 105.8 | 118.8
Fc1ccc(CN2CCN(c3ncccn3)CC2)cc1F | 4.5 | 98.6 | 81.2 | 106.5
CSc1ccc(-c2noc(CSc3ccc(-c4ccc5c(c4)OCO5)nn3)n2)cc1 | -10.8 | 107.0 | · | ·
Cc1ccc2[nH]c(=O)c(C=NC(CO)(CO)CO)c(O)c2c1 | -7.6 | · | 92.9 | 82.4
Cc1ccc(N=C2C(=O)Nc3ccccc32)cc1 | -20.8 | 108.2 | 81.6 | 72.6
CC(C)CCn1c(SCc2ccc(F)cc2)nc2nccnc2c1=O | · | 99.0 | 83.6 | 86.5
Cn1nc(C(=O)NCCCN2CCN(CCCNC(=O)c3ccc(=O)n(C)n3)CC2)ccc1=O | -24.5 | · | 78.1 | 95.1
Cn1ccc2cc(S(=O)(=O)N3CCN(C(=O)Nc4ccccc4Cl)CC3)ccc21 | -3.2 | 110.6 | · | ·
O=C(Nc1ccccc1)C1CC2CCCC(C1)C2=O (stereo not drawn) | -14.8 | · | 111.8 | 88.3
CNCc1ccccc1Br | -6.5 | · | 111.3 | 91.1
Cc1cc(N)n(-c2nc(C)nc3sc4c(c23)CCC(C)C4)n1 (stereo not drawn) | -18.9 | · | 94.5 | 90.3
Cc1ccc(NC(=O)Cn2cc(S(=O)(=O)NC(C)C)c(S(=O)(=O)NC(C)C)c2)cc1Cl | · | 104.0 | 124.0 | 79.1
CCC12CN(S(=O)(=O)c3ccc(C)cc3)CC(CC)(CN(S(=O)(=O)c3ccc(C)cc3)C1)C2=O | -13.4 | 93.1 | 104.4 | 95.2
COC(=O)c1ccccc1NC(=O)COC(=O)c1ccco1 | -12.6 | 107.9 | 120.5 | 76.4
COc1ccc(Cn2c(CCC(=O)Nc3ccc(OC)c(Cl)c3)nc3cccnc32)cc1 | 15.5 | 104.7 | 98.9 | 92.5
COC(=O)c1ccc(OCC2c3cc(OC)c(OC)cc3CCN2C(=O)Cc2ccc(OC)c(OC)c2)cc1 (stereo not drawn) | · | 98.6 | 77.8 | 75.5
CCN1C(=O)c2ccccc2Sc2ccc(NC(=O)Nc3ccccc3OC)cc21 | · | 105.7 | 111.2 | 91.8
O=C(O)c1ccccc1SCC(=O)N1CCCC1 | 22.8 | · | 97.5 | 101.9
CCc1cccc(NC(=O)Cn2nc(-c3cc(C)ccc3C)ccc2=O)c1 | -28.3 | 97.8 | 75.7 | 68.0
Cc1cccc(CCNC(=O)c2ccc3c(c2)nc2n3CCOC2)c1 | · | 104.8 | 89.6 | 90.8
O=C(Cn1c(=O)n(-c2ccc(CC(=O)NC3CC3)cc2)c(=O)c2ccccc21)Nc1ccc2c(c1)OCO2 | -12.1 | 95.2 | · | ·
COCCOC(=O)c1c(C)oc2ccc(OCc3c(F)c(F)c(F)c(F)c3F)cc12 | -12.4 | 115.4 | · | ·

Compounds as they come; any-hit rate near 0.82%.
